# From PubChem
# VDR inhibitor – vitamin D3 receptor (human) inhibition | VDR-SRC2-3 peptide fluorescence polarization, 2 h | Potency, µM, inactives show max response, negative = inhibition, hits mostly inhibitors | 400,000 tested, 0.93% active; active means well fitted inhibition curve with a large enough effect; inconclusive means small, poorly fitted or top-dose-only effect, or another doubt; inactive means no such curve, though single readings can be large or run the other way; further: series mostly up to about 120 µM
# Target sequence (P11473 whole entry, looked up): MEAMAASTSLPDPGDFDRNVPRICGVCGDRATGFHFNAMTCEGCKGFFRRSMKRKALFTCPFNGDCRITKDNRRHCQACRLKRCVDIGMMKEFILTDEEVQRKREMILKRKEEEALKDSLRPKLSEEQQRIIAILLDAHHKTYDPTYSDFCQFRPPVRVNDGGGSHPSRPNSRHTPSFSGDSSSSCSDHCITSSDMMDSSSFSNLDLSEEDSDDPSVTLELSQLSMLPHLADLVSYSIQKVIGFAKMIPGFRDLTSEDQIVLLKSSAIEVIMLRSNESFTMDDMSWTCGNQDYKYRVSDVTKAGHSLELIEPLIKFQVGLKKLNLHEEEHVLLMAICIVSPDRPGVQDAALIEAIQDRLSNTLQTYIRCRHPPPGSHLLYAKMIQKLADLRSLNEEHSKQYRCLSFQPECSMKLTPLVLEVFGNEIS
#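 FP read-out; VDR + SRC2-3 coactivator peptide; 23 nl compound by pintool; 2 h RT incubation; reagents held at 4 deg C, protected from light.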
# * marks the source's active call; other numbers are inactive results; u = inconclusive; [ ] = remark or other dose. On the % scale 0 is the no-effect control and ±100 the full control effect; potency means the concentration at half of the fitted maximal effect. Some of the compounds tested; the hit share may differ from the screen's.
VDR inhibitor	Molecule
-13.5%	CC1(C)NC(=O)N(CCCCOc2cccc(C(F)(F)F)c2)C1=O
2.1%	O=C(Nc1cccc(Cl)c1)C1COc2ccccc2O1 (stereo unspecified)
-28.2%	Cc1cc(S(=O)(=O)Nc2c(C(=O)O)[nH]c3ccccc23)ccc1F
-19.9%	CC(C)CCCCCCNC(=S)Nc1ccc(S(=O)(=O)N2CCOCC2)cc1
-11.6%	CCN(Cc1nc2ccccc2c(=O)[nH]1)C(=O)c1cccc(OCc2c(C)noc2C)c1
-1.1%	O=C(NCc1ccc(F)cc1)c1cnc2sccn2c1=O
12.1%	O=C(N/N=C/c1cccnc1)c1cc(Br)ccc1O
7.9%	O=C(c1cccc(S(=O)(=O)N2CCc3ccccc32)c1)N1CCOCC1
3.9%	Cc1cc(C2C(=O)C(C(=O)c3ccc(Cl)cc3)C(=O)CC2(C)C)on1 (stereo unspecified)
-20.4%	O=C(Cc1ccc(-n2c(=O)c3ccccc3n(Cc3ccccc3F)c2=O)cc1)NCC1CCCO1 (stereo unspecified)
-14.0%	CC1CCC2C(C1)Nc1c(C(=O)O)cccc1C2(C)C (stereo unspecified)
-15.9%	O=S(=O)(NCCc1cccs1)c1ccc(Br)cc1
-7.2%	O=C(NC1CC1)C1=C[C@H](c2csc3ccccc23)C[C@H](OCCCCO)O1
0.6%	COc1cccc(-c2noc(-c3ccc(Cl)nc3)n2)c1
9.9%	N#CC(C(=O)C1CCCCC1)c1nc2ccccc2[nH]1 (stereo unspecified)
-12.1%	O=S(=O)(c1ccccc1C(F)(F)F)N1CCC(n2cnc3ccccc32)CC1
-6.4%	O=C(/C=C/c1ccccc1Cl)NC(=S)Nc1ccccc1C(=O)NC1CCCCC1
-6.8%	COc1ccc(-n2nc3c(c2NC(=O)C2CCCC2)CS(=O)(=O)C3)cc1
2.0%	CCCCNc1c(-c2ccc(OC)c(Sc3ccc(OC)cc3)c2)nc2cnccn12
-6.0%	O=C1CCCS(=O)(=O)c2ccccc21

VDR inhibitor	Molecule
-21.5%	CCc1ccc2c(c1)c(=O)c(S(=O)(=O)c1ccccc1)cn2CC(=O)Nc1ccc(OC)cc1
-1.0%	CC1=CCC(C(=O)O)(C(=O)N/N=C/c2cccnc2)C(c2ccccc2)C1 (stereo unspecified)
-12.4%	CCOC(=O)C1CCCN(Cc2nc(Cc3cccc(F)c3)no2)C1 (stereo unspecified)
-20.2%	CCc1nn(C(CC)C(=O)NCc2cccs2)c(=O)c2cc3occc3n12 (stereo unspecified)
-5.3%	Cc1cc2nnn(-c3nnc(-c4ccccc4)c4ccccc34)c2cc1C
-5.6%	CC(=O)c1c(C)[nH]c(C(=O)N(CCc2ccccc2)Cc2ccccc2)c1C
12.1%	CC(C)(CN1CCCC1)NS(=O)(=O)c1ccc(Cl)cc1
45.9%[activator]	S=c1[nH]nc(CNc2cccc(Cl)c2)o1
44.8%[activator]	CCCn1c(C)cc(-c2csc(N)n2)c1C
-12.7%	Cc1ccc(C(=O)Nc2ncn[nH]2)cc1
-6.7%	Cc1ccc(NC(=O)[C@H](CSCc2ccccc2)N2Cc3ccccc3C2=O)cc1
12.1%	COc1ccc(C2CC(c3ccc(Br)cc3)=NN2C(=O)CSC2=NN3CCCC(=O)N=C3S2)cc1 (stereo unspecified)
-0.3%	CCC(=O)Nc1nnc(Sc2ccc(N(C)C)cc2)s1
-10.1%	CCOc1cc(CNc2ccc3c(c2)CCC3)ccc1O
-17.7%	COCCCn1c(C)nnc1SCC(=O)Nc1cccc(C)c1
-8.5%	CCCN1CN(Cc2ccccc2)CC2=C1CC(C)(C)CC2=O
9.4%	CSCC[C@H](NC(=O)OC(C)(C)C)C(=O)N/N=C/c1cccc2nccnc12
-0.5%	CC(C)C(=O)NC(C)C(c1cccs1)N1CCN(C)CC1 (stereo unspecified)
3.3%	C[C@@H]1c2ccccc2CN1CC1=NCCN1
-1.4%	COc1cccc(OC)c1OCCN1CCN(C(c2ccccc2)c2ccccc2)CC1

# By substructure: the entries above with bromine.
VDR inhibitor	Molecule
12.1%	O=C(N/N=C/c1cccnc1)c1cc(Br)ccc1O
-15.9%	O=S(=O)(NCCc1cccs1)c1ccc(Br)cc1
12.1%	COc1ccc(C2CC(c3ccc(Br)cc3)=NN2C(=O)CSC2=NN3CCCC(=O)N=C3S2)cc1 (stereo unspecified)

# Reformatted: entries from further up.
SMILES,VDR inhibitor
CC(C)C(=O)NC(C)C(c1cccs1)N1CCN(C)CC1 (stereo unspecified),-0.5%
CCOc1cc(CNc2ccc3c(c2)CCC3)ccc1O,-10.1%
Cc1ccc(NC(=O)[C@H](CSCc2ccccc2)N2Cc3ccccc3C2=O)cc1,-6.7%
CCc1ccc2c(c1)c(=O)c(S(=O)(=O)c1ccccc1)cn2CC(=O)Nc1ccc(OC)cc1,-21.5%

# Going on with the list.
VDR inhibitor	Molecule
13.6%	O=C(NNc1ccc(Cl)nn1)c1ccc(Cl)cc1
-22.9%	Clc1ccccc1CSc1nnc(-c2cccnc2)n1Cc1ccco1
7.1%	COc1cccc(/C=C/C(=O)OCC(=O)Nc2cccc(S(=O)(=O)NC3=NCCCCC3)c2)c1
-16.0%	CCn1cc(CN2CCC(n3nccc3NC(=O)C3CCCC3)CC2)c(C)n1
-2.7%	O=C(CCSc1nnc2scc(-c3ccccc3)n12)Nc1nc(-c2ccccc2)ns1
3.9%	Nc1c(C(=O)NCCC2=CCCCC2)sc2ccc(S(=O)(=O)N3CCCCC3)cc12
-7.8%	COc1ccc(-c2nc(CSCC(=O)N3CCN(C)CC3)c(C)o2)cc1OC
-8.1%	Cc1onc(-c2c(F)cccc2Cl)c1C(=O)Nc1ccc(S(=O)(=O)N2CCOCC2)cc1
-9.4%	O=C(O)C1=C[C@@H](c2coc3ccccc3c2=O)C[C@@H](OCCCCO)O1
-4.4%	O=C(N/C(=C\c1ccco1)C(=O)N1CCCCC1)c1ccc([N+](=O)[O-])cc1
-6.8%	CCOC(=O)C1=C(C)NC(=O)NC1c1ccc(NC(C)=O)cc1 (stereo unspecified)
-0.5%	Cc1cnc(CNc2ncncc2-c2ccccc2C(F)(F)F)cn1
2.2%	COc1cc(/C=C/C(=O)OCC(=O)Nc2oc(C)c3c(C)n[nH]c(=O)c23)ccc1OC(F)F
-8.0%	CCCNC(=O)C(Cc1ccc(OC)cc1)NC(=O)c1ccc(C#N)cc1 (stereo unspecified)
12.7%	O=C(Nc1ccc(Cl)cc1)Nc1cccc(C(=O)O)c1
-25.2%	O=C(Nc1ccon1)C1CCN(S(=O)(=O)c2cccs2)CC1
-9.1%	CC(=O)OCC(=O)[C@@]1(O)CCC2C3CCC4=CC(=O)CCC4(C)C3C(=O)CC21C (stereo partly specified)
-2.5%	Cc1ccc(-c2n[nH]c(=O)c3ccccc23)cc1S(=O)(=O)Nc1ccccc1
-9.8%	O=C1CCCC(O)=C1C1C2=C(CCCC2=O)OC2=C1C(=O)CCC2
11.9%	Cc1ccc(NC(=O)CN2C(=O)COc3ccc(S(=O)(=O)NC4CCCC4)cc32)c(Cl)c1

VDR inhibitor	Molecule
15.9%	Cc1oc2c(CN3CCCC3)c(O)ccc2c(=O)c1Oc1ccccc1Br
7.9%	CCOc1ccc(OCC)c(NC(=O)c2cc(S(=O)(=O)N3CCc4ccccc43)cn2C)c1
5.6%	CC(=O)N1c2c(cc(Br)cc2S(=O)(=O)N2CCN(c3cc(C)ccc3C)CC2)CC1C (stereo unspecified)
14.2%	Cc1nn(-c2cccc(Cl)c2)c2nc(-c3cccnc3)cc(C(F)(F)F)c12
-10.2%	CC1(C)N=C(SCC(=O)Nc2ccc(Cl)cc2)C(c2ccc(Cl)cc2)=N1
10.4%	Cc1c(NS(=O)(=O)c2ccc(NCCN3CCOCC3)c([N+](=O)[O-])c2)c(=O)n(-c2ccccc2)n1C
14.5%	CCCCn1c(C)nc2c(=O)n(C)c(=O)[nH]c21
-8.7%	Cc1ccc(-n2c(C)cc(/C=C(\C#N)C(=O)Nc3ccc(C)c(C)c3)c2C)cc1
-0.2%	CCOC(=O)C(NCCc1ccccc1)(NC(=O)CC)C(F)(F)F (stereo unspecified)
-2.9%	O=S(=O)(Nc1ncccn1)c1ccc(NC(=S)NCCc2ccccc2)cc1
-0.2%	CCC(Oc1ccccc1)C(=O)Nc1cc(-c2ccccc2OC)nn1-c1ccccc1 (stereo unspecified)
1.6%	CC(C)NC(=O)N1CCCC2(CCN(C(=O)c3ccco3)CC2)C1
25.6%	Cc1nc2cccnc2n1C1CCN(S(=O)(=O)c2ccc(C(C)C)cc2)CC1
-0.2%	COc1cccc(NC(=O)CN(C)C(=O)CCNC(=O)c2ccccc2Cl)c1
-8.3%	COc1cccc(=O)c2c(C)n(CC(=O)c3ccccc3)c(C)c12
2.5%	Cc1cc(C)c(S(N)(=O)=O)c(C)c1N(C)S(=O)(=O)c1ccc(Cl)cc1
-2.5%	COc1ccc(C(=O)c2c(C)oc3cc([N+](=O)[O-])c(O)c([N+](=O)[O-])c23)cc1
-6.4%	Cc1nn(C)c2c1c(-c1ccccc1)cc(=O)n2Cc1ccc(F)cc1
6.3%	CC(=O)c1cc2c(cc1NC(=O)c1cc(C)nn1-c1ccccc1)OCO2
-5.1%	O=C(COC(=O)CCc1c[nH]c(=O)[nH]1)Nc1ccccc1Cl

VDR inhibitor	Molecule
-12.0%	CCOC(=O)COc1ccc(S(=O)(=O)NCC2CCCO2)cc1 (stereo unspecified)
-6.9%	CCc1nc(SCc2ccccc2C#N)n[nH]1
u	O=C(O)c1ccccc1N/N=C/c1cc(Br)cc(Br)c1O
-9.1%	CC(C)(C)C(=O)Nc1nnc(-c2ccccc2)c(-c2ccccc2)n1
5.6%	O=S(=O)(c1ccc(F)cc1)N1CCn2c(nc3ccccc32)C1
7.4%	CC1(C)OC(=O)C(=CNC(CO)C(=O)O)C(=O)O1 (stereo unspecified)
-15.4%	Cc1cc(SCC(=O)c2cccs2)n2nc(C)c(-c3ccc(Cl)cc3)c2n1
7.9%	COc1ccccc1NC(=O)Cn1c(=O)n(-c2cccc(C)c2)c(=O)c2c1c1cc(C)ccc1n2C
-1.1%	O=c1cc(CSc2ccc(S(=O)(=O)N3CCCCC3)cn2)nc2sccn12
9.6%	COc1ccc(Cc2noc(-c3ccc(C)cc3)n2)cc1
4.6%	Cc1c(Cl)cccc1NC(=S)N1CCCN(Cc2ccccc2F)C1
6.9%	CN1C(=O)C[C@H](C(=O)O)[C@@H]1c1cccnc1
5.4%	CC1CN(C(=O)N2CCC(C(=O)NCc3ccccc3F)CC2)c2cc(Cl)ccc2O1 (stereo unspecified)
7.7%	O=C(Nc1cccc(F)c1)c1ccco1
-2.7%	COc1ccc(-c2cc3cc(C(=O)O)ccn3c2C(=O)c2ccccc2)cc1
-14.6%	C/C(=N\N1C(C)CCCC1C)c1ccccc1O (stereo unspecified)
1.0%	O=C(NC1CCCC1)c1ccc(CSc2nc3ccncc3n2Cc2ccccc2F)cc1
6.8%	COc1ccc(C)c2sc(N(CCCN(C)C)C(=O)c3ccc(S(=O)(=O)N(C)C)cc3)nc12
5.4%	CCC(CC)c1nnc(NS(=O)(=O)Cc2ccccc2)s1
-4.4%	O=C(Nc1nnc(Cc2ccccc2)s1)c1ccco1

VDR inhibitor	Molecule
-8.4%	COc1ccccc1CN1C[C@@H]2C[C@@H](c3[nH]c4ccc(C)cc4c3C)N3CCC[C@@]23C1=O
13.8%	CCC(C)NC(=O)c1nn(-c2ccc(C)cc2)c(=O)n(C)c1=O (stereo unspecified)
4.7%	O=C(Nc1ccc(F)cc1F)c1ccc2c(=O)n3c(nc2c1)CCC3
11.2%	FC(F)(F)c1ccccc1NC(=S)N1CCCC1
2.2%	CCOc1ccc2nc(COC(=O)c3cccs3)c(C(C)=O)[n+]([O-])c2c1
-11.9%	COc1ccc(N2C(=O)CC(N3CCN(Cc4ccc5c(c4)OCO5)CC3)C2=O)cc1 (stereo unspecified)
9.8%	CCn1c(SC)nnc1C1CCN(S(=O)(=O)c2ccc(OC)cc2)CC1
18.5%	COc1ccc(NC(=O)Nc2cccc3c2O[C@H](CN(C)S(C)(=O)=O)[C@@H](C)CN([C@H](C)CO)C3=O)cc1
-2.0%	Cc1ccc(NC(=S)NC(=O)c2cccs2)cc1F
-8.9%	O=C(NCCc1nc2ccccc2n1CCCOc1ccccc1Cl)C1CCCCC1
0.0%	O=C(Nc1ccccc1Oc1ccccc1)c1cnccn1
-5.6%	O=C(NC(=S)NC(c1ccccc1)c1ccncc1)c1ccccc1 (stereo unspecified)
-23.7%	O=C(CCN1C(=O)C2CCCCC2C1=O)Nc1nc2ccc(F)cc2s1 (stereo unspecified)
-5.6%	COc1cc(C(c2nnnn2C2CCCC2)N2CCN(C)CC2)cc(OC)c1OC (stereo unspecified)
6.0%	COCCN(Cc1ccccc1)C(=O)c1ccc(C(=O)c2ccccc2)cc1
-4.7%	O=C(NCCCc1ccc(F)cc1)C1CCC(=O)N(CCN2CCOCC2)C1 (stereo unspecified)
5.3%	CC1Cc2ccccc2N1C(=O)CSc1nc(-c2ccccc2)cs1 (stereo unspecified)
10.4%	O=C(Nc1ccc(Cl)c(S(=O)(=O)N2CCCCC2)c1)C1=COCCO1
-9.3%	CC(C)Oc1ccc(Br)cc1C(=O)N/N=C/c1c[nH]c2ccccc12
3.3%	Cc1ccc(CN(Cc2cc3cc(C)ccc3[nH]c2=O)C(=O)N2CCOCC2)cc1

# Single values from the results shown:
# VDR inhibitor with `O=C(Nc1ccccc1Oc1ccccc1)c1cnccn1` stands at 0.0%
# VDR inhibitor with `Cc1ccc(NC(=S)NC(=O)c2cccs2)cc1F` stands at -2.0%

# (cont.)
VDR inhibitor	Molecule
10.4%	O=C(COC(=O)c1cccc(S(=O)(=O)NCc2ccccc2)c1)c1ccc2c(c1)OCCO2
-0.5%	N#CCC(=O)N/N=C/c1cn(Cc2cccc3ccccc23)c2ccccc12
u	COc1cccc(NC(=O)CCc2nnc3ccc(N4CCC(C)CC4)nn23)c1
-7.7%	CC(C)CC(=O)Nc1cccc(-c2csc(-c3ccccc3)n2)c1
12.2%	Cn1nnnc1SCC(=O)Nc1ccccc1C(=O)NC1CC1
-3.3%	CCCCNS(=O)(=O)C1CCS(=O)(=O)C1 (stereo unspecified)
4.1%	COc1cccc(CC(=O)N2CCN(S(=O)(=O)c3ccc(Br)cc3)CC2)c1
